# High-throughput results (PubChem)
# PINK1 modulator: changes PINK1 expression | 0.2% of 410,000 active | PINK1 immunofluorescence, high-content cytometry, 24 h | Potency, µM (top dose mostly 76.6 µM), inactives show at the top dose activation (PINK1 increase), hits mostly activators; active = well fitted activation curve with a large enough effect; inconclusive = small, poorly fitted or top-dose-only effect; inactive = flat fitted curve, though single readings scatter; cell line not stated here;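 note: potency is the fitted concentration of half-maximal effect; % of control where 0% means no effect; nearly all actives have a fitted effect of over 65% in size; a mitochondrial uncoupler was the plate control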
#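 A stable cell line was treated with compounds at 5 concentrations for 24 hours, with CCCP as control. PINK1 levels and mitochondrial localization were measured by immunofluorescence with mitochondrial, cell and nuclear markers after fixation, read by laser-scanning cytometry.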
# TRPML1 inh: blocks the human TRPML1 channel | AID 624415 | TRPML1-inducible cells, Ca2+ dye fluorescence, FDSS; active compounds read low; inhibition of EC80 agonist-evoked calcium signal | 0.02% of 390,000 active | Q9GZU1 | activity change, negative = inhibition, % (concentration not given with the values); in the data active means activity change below about -50%; inconclusive means about -30% to -50%; inactive means above about -30%;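 note: stimulus is agonist 54-4 at its EC80 concentration; % is set by controls: 0 for no effect and ±100 for the full control effect; the text of the record puts the active cut at -80%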
#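 TRPML1-DL cells, Tet-induced overnight (~16 h, 37 °C) at 1,500 cells/well, were loaded with Ca8 no-wash dye plus quencher for 45-90 min at room temperature. Compounds were pinned during FDSS kinetic reading; agonist 54-4 at EC80 (4 uM final) then added.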
# Six1-Eya2 blk: blocks human Six1 binding to Eya2; Q15475+O00167; 0.56% of 360,000 active; AlphaScreen GST-Six1/His-Eya2 binding, biochemical; active compounds read low; control for the full effect not named in the record; activity change, % (no concentration beside the values); AID 651725; in the data active = activity change below about -65%; inconclusive = about -30% to -65%; inactive = above about -30%; note: % is set by controls: 0 for no effect and ±100 for the full control effect
# Target sequence (O00167 whole entry, looked up): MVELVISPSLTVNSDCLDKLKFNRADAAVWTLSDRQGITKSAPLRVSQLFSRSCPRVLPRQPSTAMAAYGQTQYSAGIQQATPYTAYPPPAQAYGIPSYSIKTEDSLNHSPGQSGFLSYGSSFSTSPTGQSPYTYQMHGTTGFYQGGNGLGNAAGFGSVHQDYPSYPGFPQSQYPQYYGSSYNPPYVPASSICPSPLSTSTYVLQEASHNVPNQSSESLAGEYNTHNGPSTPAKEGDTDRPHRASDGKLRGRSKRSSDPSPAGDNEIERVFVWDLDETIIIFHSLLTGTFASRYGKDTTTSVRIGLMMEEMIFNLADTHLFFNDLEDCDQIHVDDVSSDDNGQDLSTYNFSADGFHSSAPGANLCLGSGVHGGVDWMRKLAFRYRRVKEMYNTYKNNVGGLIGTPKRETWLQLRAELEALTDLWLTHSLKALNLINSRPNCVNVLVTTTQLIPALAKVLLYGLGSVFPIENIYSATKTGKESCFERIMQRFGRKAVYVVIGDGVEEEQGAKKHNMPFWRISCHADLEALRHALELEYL
# Target sequence (Q15475 whole entry, looked up): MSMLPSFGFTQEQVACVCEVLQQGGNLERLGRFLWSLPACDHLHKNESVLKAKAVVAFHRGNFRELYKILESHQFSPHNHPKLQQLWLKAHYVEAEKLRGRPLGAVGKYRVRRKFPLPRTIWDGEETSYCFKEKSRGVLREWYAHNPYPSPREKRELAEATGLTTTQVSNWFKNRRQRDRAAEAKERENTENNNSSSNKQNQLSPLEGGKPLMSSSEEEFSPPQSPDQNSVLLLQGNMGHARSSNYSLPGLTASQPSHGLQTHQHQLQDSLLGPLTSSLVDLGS
#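 Homogeneous AlphaScreen proximity assay pairing GST-Six1 with His-tagged Eya2 (added as 5X mix: 250 nM and 500 nM) in 50 mM Tris pH 8.0, 300 mM NaCl, 1 mM TCEP. Glutathione donor and nickel acceptor beads; 1 h, 37 °C, dark.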
# TRPML1 agonist: human mucolipin-1 channel agonism. Q9GZU1. TRPML1-expressing cells, Ca2+ dye fluorescence, FDSS; host cell line not named in the record; reference of the full effect not given here. activation, % (test concentration not listed). 0.12% of 410,000 active; in the data active = activation above about 50%; inconclusive = about 30% to 50%; inactive = below about 30%; note: 0% is about no effect; the text of the record puts the active cut at 80%
#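 Agonist activity was taken from a 110 s kinetic Ca2+ dye read on the FDSS after pinning compounds onto TRPML1-DL cells. The cells were seeded at 1,500/well with Tet inducer, incubated about 16 h, then dye-loaded at room temperature.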
# D2 PAM: positive allosteric modulators of human D2 dopamine receptor; DiscoveRx D2 beta-arrestin cells, luminescence, 90 min; 100% = 57 uM dopamine signal; potentiation, % (test concentration not listed); 0.23% of 360,000 active; active = potentiation of 50% or more; inconclusive = 30% to 50%; inactive = 30% or less;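 note: compound concentration not given in the record; tested on top of an EC20 dose of dopamine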
#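 D2 cells co-treated with compound plus 50 nM dopamine (EC20) for 90 min at 37 deg C to detect potentiation. Beta-arrestin recruitment was read as enzyme-fragment luminescence after 1 h at ambient temperature. Full response was set by 57 uM dopamine.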
# D2 agonist: activates the human D2 dopamine receptor | activation, % (no concentration beside the values) | DiscoveRx PathHunter D2 beta-arrestin, luminescence, 90 min; 100% = 57 uM dopamine signal | 0.084% of 360,000 active | P14416; in the data active = activation above about 40%; inconclusive = about 15% to 40%; inactive = below about 15%; note: compound concentration not given in the record; the text of the record calls up to 30% inactive
#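 DiscoveRx PathHunter D2 beta-arrestin cells (2,100/well) attached overnight, then compound-stimulated 90 min at 37 C in HBSS/10 mM HEPES/0.1% Tween-20 buffer; beta-galactosidase complementation read by luminescence after 1 h at ambient temperature. Dopamine 57 uM final (EC100) as control.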
# * hit, by the source's call; ? = inconclusive; · = not tested or not shown; [ ] = another dose, or the depositor's remark.
compound	PINK1 modulator	TRPML1 inh	Six1-Eya2 blk	TRPML1 agonist	D2 PAM	D2 agonist
CC1Cc2ccccc2N1C(=O)c1ccc(N2CCCC2)c([N+](=O)[O-])c1 (configuration not stated)	0.1%	-12	?	0.0	-7	4.4
Cc1nnc(SCc2nnc(-c3ccccc3)o2)n(N)c1=O	-0.2%	-12	0	1.2	-14	-0.2
Cc1cc(C(=O)NCCc2ccc(Cl)cc2)no1	0.0%	-1	-5	0.6	-35	-1.5
Nc1cc(=O)[nH]c(SCC(=O)Nc2ccccc2-c2ccccc2)n1	0.2%	2	7	-1.2	0	-2.5
O=C(COC(=O)COc1ccc(Br)cc1)NCCC1=CCCCC1	0.9%	-6	46	-0.7	-1	2.8
NS(=O)(=O)c1ccc(NC(=S)N2CCc3ccccc32)cc1	2.0%	-1	-2	-0.2	-8	1.0
Cc1ccccc1CNC(=O)C1CCCN(c2nnc(-n3c(C)ccc3C)s2)C1 (configuration not stated)	0.3%	-8	·	2.1	·	·
COc1ccccc1-n1c(SCC(=O)NC(C)(C)C)nc(O)c(Cc2ccccc2)c1=O	-0.9%	81	-12	0.0	2	-3.0
CC1(C)CC(OC(=O)c2ccco2)CC(C)(C)N1O	2.7%	49	-5	-0.1	5	6.7
CCc1sc(C(=O)N(CCOC)c2c(N)n(Cc3ccccc3)c(=O)[nH]c2=O)cc1C	-0.7%	-1	9	-0.6	-8	-2.6
Cc1cc(N2C(=O)C(=O)/C(=C(/O)c3ccc(F)cc3)C2c2ccc(F)cc2)no1 (configuration not stated)	0.3%	23	7	1.1	-4	4.3
N/C(=N\OC(=O)c1ccc(Cl)cc1)c1nonc1N	7.9µM*	16	2	1.1	0	1.1
Cc1ccc(CN2CCN(/N=C/c3ccc(N(C)C)cc3)CC2)cc1	3.0%	-2	-12	0.3	-14	-2.9
O=C1c2ccccc2CCC12N=NCC2c1ccc(Cl)cc1 (configuration not stated)	0.3%	56	7	1.0	11	4.9
CC1CN(CCOc2ccc(F)cc2)CC(C)O1 (configuration not stated)	0.5%	-12	2	0.5	-4	-2.3
NC(=O)c1ccc(NC(=O)COC(=O)CCN=C2NS(=O)(=O)c3ccccc32)cc1	-0.5%	13	-21	-0.5	-2	7.0
C#CCOCCOCCOCCNc1nc(N2CCOCC2)nc(N2CCN(C(=O)[C@H](CCCCN)n3cc([C@@H](N)CC(C)C)nn3)CC2)n1	-0.6%	-4	4	0.2	-33	-2.9
O=C(c1coc2ccc(O)c(CN3CCOCC3)c12)C1CC1	1.7%	-3	3	0.5	-10	-5.4
CCC(=O)N(Cc1cccs1)C1CCOC(C)(C)C1 (configuration not stated)	-0.3%	-7	5	-0.7	-17	-4.4
CCc1cc2cc(C)ccc2nc1SCC(=O)NNC(=O)c1ccco1	6.5%	9	0	1.2	-14	-4.9

# Record cards, from the list above. Screens in order: PINK1 modulator, TRPML1 inh, Six1-Eya2 blk, TRPML1 agonist, D2 PAM, D2 agonist
# Record of Cc1nnc(SCc2nnc(-c3ccccc3)o2)n(N)c1=O = -0.2%, -12, 0, 1.2, -14, -0.2
# Record of CCC(=O)N(Cc1cccs1)C1CCOC(C)(C)C1 (configuration not stated) = -0.3%, -7, 5, -0.7, -17, -4.4

# (cont.)
compound	PINK1 modulator	TRPML1 inh	Six1-Eya2 blk	TRPML1 agonist	D2 PAM	D2 agonist
COc1ccc(S(=O)(=O)N2CCC(C(=O)N3CCOCC3)CC2)cc1Cl	0.9%	-8	9	-0.5	2	2.5
CC(=O)c1c(O)cc(C)n(-c2ccc(F)cc2)c1=O	-1.2%	-1	0	0.5	-9	-5.6
Fc1ccc2c(c1)c1n[nH]c(=S)nc1n2CCc1ccccc1	0.2%	29	0	0.9	-10	0.9
C#CCOCCOCCOCCNc1nc(N2CCN(C(=O)C([C@@H](C)O)n3cc([C@@H](N)CCCCN)nn3)CC2)nc(N2CCN(C(=O)[C@H](CCC(=O)O)n3cc([C@@H](N)CCCCN)nn3)CC2)n1 (some centres not stated)	1.2%	23	-11	-0.1	-6	2.6
CC(C)C(=O)Nc1ccc(C(=O)Nc2nnc(C(C)(C)C)s2)cc1	1.9%	2	12	-0.2	0	0.7
CC(O)(c1cccnc1)c1nc(-c2ccc3ccccc3c2)cs1 (configuration not stated)	-0.9%	·	6	0.3	-10	6.9
COC(=O)Cn1c(O)c(N=NC(=O)OC)c2ccccc21	0.6%	-12	1	0.2	-10	-5.2
Cc1ccc[n+](-c2[nH]c(=O)sc2/C=N/N=C(\[O-])CCn2c3ccccc3c3ccccc32)c1	1.0%	-9	1	0.5	1	-6.0
COc1ccc(S(=O)(=O)N2CCCC2CNC(=O)C(=O)NC2CCCC2)cc1 (configuration not stated)	-0.5%	8	-3	-1.3	4	-1.4
CC(C)c1nnc(NC(=O)CCC(=O)N2CCN(Cc3ccc(F)cc3)CC2)s1	-0.2%	-9	4	0.1	-15	-5.0
O=c1cc(-c2ccc(C3CCCCC3)cc2)[nH][nH]1	0.7%	15	-2	-0.7	-9	-3.9
COc1ccc(CC(=O)Nc2ccc3nc(N4CCCCC4)cc(C)c3c2)cc1	3.5%	6	·	3.8	·	·
Clc1ccccc1-c1nnc2n1CCCCC2	1.6%	-5	7	-0.4	-3	-4.6
COc1ccc(C=O)cc1C1=CC(=O)C[C@H](c2ccc(Cl)cc2)C1	?	38	-4	1.2	0	-2.9
O=C(CCc1nc2ccccc2s1)N1CCN(S(=O)(=O)c2cccs2)CC1	-1.5%	-12	-2	2.2	-5	-0.3
CCOC(=O)c1cnc2c(-c3ccccc3)c(-c3ccccc3)nn2c1C	5.7%	-10	7	1.3	-6	0.2
COc1ccc(OC)c(/C=C(\C)C(=O)c2c(C)cc(C)[nH]c2=O)c1	-0.3%	-10	1	0.9	0	-0.5
CN(C)c1ccc(/C=C/c2cc[n+](C)cc2)cc1	3.5%	5	-24	4.4	-12	-1.0
COC(=O)[C@@]1(Cc2ccc(OC)cc2)[C@H]2c3cc(C(=O)N4CCCC4)n(Cc4ccc(C)c(F)c4F)c3C[C@H]2CN1C(=O)c1ccccc1	-0.7%	·	-19	-0.1	·	·
Cc1ccc(-n2c(C)nc3c(cnn3-c3ccccc3)c2=O)cc1	0.3%	-8	·	1.9	·	·
CC(=O)Nc1cccc(-c2csc(C(O)c3cccc(Cl)c3)n2)c1 (configuration not stated)	3.3%	·	2	0.0	-6	2.1
CCc1ccc(OCC(=O)Nc2ccc(S(=O)(=O)N3CCOCC3)cc2)cc1	3.0%	6	2	1.3	16	-6.3
CC1(C)Cc2ccccc2C(/C(C#N)=N/O)=N1	-0.1%	-1	6	1.2	-6	-3.3
Cc1nc2ccccc2c(=O)n1-c1ccc(NC(=O)C(F)(F)F)cc1	-0.2%	4	·	-0.5	·	·
Cc1ccc(OCC(=O)N(Cc2ccco2)Cc2ccc(C)o2)cc1	-0.4%	7	·	2.9	·	·
CCN(CC(=O)Nc1c(F)cccc1F)C(=O)C1=COCCO1	-6.9%	13	0	0.9	7	-3.2
COc1ccc2c(c1)[C@H]1[C@H](CO2)[C@H](c2ccccc2)[C@]2(C)C(=O)Nc3cc(F)ccc3C(=O)N12	6.7%	-4	-17	3.7	-6	-3.0
O=S(=O)(Nc1cccc(S(=O)(=O)N2CCCC2)c1)c1cccs1	-0.6%	-10	-8	-0.4	-6	-1.1
COc1ccc(OC)c(S(=O)(=O)N2CCC(C(=O)Nc3ccccc3)CC2)c1	-1.2%	8	-3	-0.3	2	-0.7
CC(=O)Nc1ccc(C(=O)OCC(=O)N2CCCC2)cc1	1.5%	-4	-2	-0.1	-3	-4.0
CC(=O)c1c(C)[nH]c(C(=O)NCc2cccc(Cl)c2)c1C	0.5%	-18	-1	-0.6	-8	-1.9
CCC(=O)Nc1sc2c(c1C(N)=O)CCN(C(C)=O)C2	-1.0%	36	8	-1.0	4	-2.9
O=C(CCS(=O)(=O)c1ccc(Br)s1)NC1CCCC1	2.2%	-3	6	-0.3	-10	-2.5
CCCCn1c(N)c(Sc2ccccc2)c(=O)[nH]c1=O	1.6%[38.3 µM]	1	8	0.4	-9	-2.7
Cc1cc(SCC(=O)N2c3ccccc3NC(=O)CC2C)nc2ccccc12 (configuration not stated)	2.1%	-12	-1	-0.3	-14	-1.3
CC(C)Nc1nc(-c2ccccc2F)c2sc(-c3ccccc3)cc2n1	?	·	26	-0.6	-2	-4.8
O=C(C1CC1)N1CCC(c2nc(-c3ccc(S(=O)(=O)NCC4CCCO4)cc3)no2)CC1 (configuration not stated)	7.4%[38.3 µM]	-11	5	0.0	-5	-1.6
COc1ccc(N=Nc2cc(OC)c(N)cc2OC)cc1	1.5%	8	?	-1.5	-7	-1.9
CCc1ccc(N(CC(=O)NCC2CCCO2)C(=O)CCC(=O)Nc2nccs2)cc1 (configuration not stated)	3.9%	5	-11	0.9	-9	-5.1
COC(=O)c1ccc(NC(=O)c2c(NCc3ccc(C)o3)sc3c2CCCC3)cc1	3.8%	-20	·	-0.1	·	·

# Look-ups from above.
# CCc1ccc(N(CC(=O)NCC2CCCO2)C(=O)CCC(=O)Nc2nccs2)cc1 (configuration not stated) | D2 PAM: -9
# COc1ccc2c(c1)[C@H]1[C@H](CO2)[C@H](c2ccccc2)[C@]2(C)C(=O)Nc3cc(F)ccc3C(=O)N12 | D2 PAM: -6

# (more compounds)
compound	PINK1 modulator	TRPML1 inh	Six1-Eya2 blk	TRPML1 agonist	D2 PAM	D2 agonist
Cc1c(NC(=O)COC(=O)c2cc(-c3cccc4ccccc34)nc3ccccc23)c(=O)n(-c2ccccc2)n1C	3.9%	-10	-2	-0.8	23	-0.1
COc1cc2c(=O)n(C)c3ccccc3c2cc1OC	1.3%	6	17	-0.5	-8	-5.8
Cc1ccc(S(=O)(=O)N(C)C(C)CCc2ccco2)cc1 (configuration not stated)	0.5%	28	-11	3.2	-2	2.5
Cn1c(C(=O)NCCN2CCN(c3ccccc3F)CC2)cc2c(=O)n(C)c3ccccc3c21	2.8%	8	-16	-0.1	-10	10
NNC(=O)Cc1cn(-c2ncc(C(F)(F)F)cc2Cl)c2ccccc12	4.1%	9	-7	0.0	-5	-2.4
CCOc1ccc(-c2csc(/C(C#N)=C/c3ccc(Br)cc3)n2)cc1	1.5%	21	·	2.1	·	·
CC(=O)Nc1ccc(S(=O)(=O)CC(=O)CS(=O)(=O)c2ccc(NC(C)=O)cc2)cc1	5.8%	7	-1	0.3	-10	4.2
Clc1ccc2nncn2n1	0.0%	24	-2	0.5	-9	3.2
OCC[C@@H]1C[C@H](O)[C@@H](O)[C@@]2(Cc3ccccc3CCO2)O1	0.0%	8	-1	-0.1	-3	-1.9
O=C1CCN(Cc2ccc(Br)cc2)CCN1CCO	1.1%	1	7	-0.5	-34	-0.2
COc1ccc(S(=O)(=O)Nc2ccc3c(c2)C(=O)N([C@H](C)CO)C[C@H](C)[C@@H](CN(C)S(=O)(=O)c2ccc(F)cc2)O3)cc1	-1.3%	6	-4	-0.6	0	4.0
